KCNQ2 block: KCNQ2 potassium channel inhibitors, primary screen, cell-based, CHO-K1, FluxOR thallium flux, B-score (AID 2156) | B-score at 10 µM | hit rate 1.1% among 310,000 | 20 min; active compounds read low; only compounds with negative scores are shown here; some inactives read as strong as hits;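 active = fluorescence ratio B-score at most minus 3 library SDs, with starting brightness B-score within 2 library SDs, cut at about -5.5 in these data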
Target sequence (O88943 whole entry, looked up): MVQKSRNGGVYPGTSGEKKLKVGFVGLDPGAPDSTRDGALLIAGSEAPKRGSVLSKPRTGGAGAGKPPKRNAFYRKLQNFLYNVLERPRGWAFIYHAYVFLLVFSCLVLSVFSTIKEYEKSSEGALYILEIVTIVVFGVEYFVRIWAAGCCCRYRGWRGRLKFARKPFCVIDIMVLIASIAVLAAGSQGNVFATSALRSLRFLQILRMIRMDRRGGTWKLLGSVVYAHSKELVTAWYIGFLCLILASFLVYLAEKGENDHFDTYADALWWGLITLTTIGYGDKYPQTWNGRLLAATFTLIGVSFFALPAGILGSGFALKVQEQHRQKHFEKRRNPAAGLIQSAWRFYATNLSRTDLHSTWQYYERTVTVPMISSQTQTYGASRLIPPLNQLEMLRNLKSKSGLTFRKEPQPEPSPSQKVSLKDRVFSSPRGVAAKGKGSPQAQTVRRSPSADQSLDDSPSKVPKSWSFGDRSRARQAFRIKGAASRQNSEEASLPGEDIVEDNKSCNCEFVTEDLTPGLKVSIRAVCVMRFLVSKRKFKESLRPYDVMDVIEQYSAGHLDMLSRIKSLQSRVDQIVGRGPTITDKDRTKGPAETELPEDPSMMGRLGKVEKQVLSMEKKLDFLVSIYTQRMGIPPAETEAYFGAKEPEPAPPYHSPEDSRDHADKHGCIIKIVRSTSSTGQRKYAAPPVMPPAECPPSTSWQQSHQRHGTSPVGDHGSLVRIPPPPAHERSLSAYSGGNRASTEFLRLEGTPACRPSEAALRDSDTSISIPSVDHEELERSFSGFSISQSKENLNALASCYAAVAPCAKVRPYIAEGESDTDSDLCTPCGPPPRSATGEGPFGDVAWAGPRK
KCNQ2 block baseline: second read-out of KCNQ2 block, no call of its own (marks repeat the call); B-score; measured here: initial fluorescence intensity artifact check;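 brightness before thallium and not channel activity; 0 = typical well and far values either way flag optical interference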
Starred values were filed as active, the others as inactive; i = inactive.

SMILES	KCNQ2 block	KCNQ2 block baseline
CCc1ccccc1NC(=O)C/C(C)=N/NC(=O)COc1ccccc1C	i	-0.09
COCCn1c(SCC(=O)NCc2ccc(OC)c(OC)c2)nc2ccccc21	i	1.52
O=C(Cc1ccc([N+](=O)[O-])cc1)Nc1nccs1	i	-0.31
C[C@@]12CC(=O)NC1N(C(=O)c1cccc(C(F)(F)F)c1)C(c1ccccc1OC(=O)c1cccc(C(F)(F)F)c1)C2 (some centres not stated)	i	-0.13
Cc1cc([N+](=O)[O-])ccc1NC(=O)c1sc2ncn(CC(=O)N3CCOCC3)c(=O)c2c1C	i	0.25
CCOc1c(Cl)cc(CNc2ccc(N3CCCC3)cc2)cc1OC	i	0.48
Cc1ccc(NC(=S)N/N=C/c2ccc(Cl)c([N+](=O)[O-])c2)cc1	i	-0.05
CCOC(=O)c1c(NC(=O)CSc2c[nH]c3ccccc23)sc2c1CCC2	i	-0.27
COc1cccc(C(C(=O)NC2CCCC2)N(C(=O)c2ccco2)c2cccc(C(C)=O)c2)c1OC (configuration not stated)	i	0.48
Cc1nn2c3ccccc3nc2c2ccccc12	i	1.14
CC(c1ccccc1)N1CCC(CNC(=S)Nc2cccc(Cl)c2)C1 (configuration not stated)	i	1.19
CC(=O)NCCc1nc2ccccc2n1CCc1ccccc1	i	-1.01
Cc1c(C#N)c(N=CN(C)C)c(C(=O)c2ccc(Br)cc2)n1-c1ccc(Cl)cc1	i	-0.03
O=C(CCCc1ccccc1)Nc1ccccc1[N+](=O)[O-]	i	0.84
O=C(C(O)c1ccccc1)N1N=C(c2ccccc2)CC1(O)C(F)(F)F (configuration not stated)	i	-0.19
CCS(=O)(=O)C1=NSC2=NC(=O)/C(=C\c3ccc(OC(=O)c4ccco4)c(OC)c3)C(=N)N21	i	2.82
Nc1nonc1C(=O)NCCNCc1ccccc1OCc1ccccc1F	i	1.95
CCc1ccc2nc(N(CCN(C)C)C(=O)/C=C/c3cccs3)sc2c1	i	0.32
COc1ccc(Nc2cc(NCCCO)c([N+](=O)[O-])c3nonc23)cc1	i	-0.53
CCCCCOC(=O)c1[nH]c2c(c1C)C(=O)CC(c1ccco1)C2 (configuration not stated)	i	-1.77
CC1=CCC2C(=O)N(c3nc4ccccc4n3C)C(=O)C2C1 (configuration not stated)	i	-0.01
CC(C)(O)C#Cc1ccc(CN2CCN(Cc3ccsc3)C(CCO)C2)s1 (configuration not stated)	i	-0.1
CCc1ccc(C(=O)NNc2ccc(S(N)(=O)=O)cc2)cc1	i	-0.63
CC1(C)C2CCC(C2)C1(C)N=C1OC(CCl)CS1 (configuration not stated)	i	-0.01
C=CCNC(=S)NN=C1CCC(c2ccccc2)CC1 (configuration not stated)	i	0.01

Seven entries drawn at random from the list so far, as already listed:
SMILES	KCNQ2 block	KCNQ2 block baseline
Cc1cc([N+](=O)[O-])ccc1NC(=O)c1sc2ncn(CC(=O)N3CCOCC3)c(=O)c2c1C	i	0.25
COCCn1c(SCC(=O)NCc2ccc(OC)c(OC)c2)nc2ccccc21	i	1.52
CCc1ccc(C(=O)NNc2ccc(S(N)(=O)=O)cc2)cc1	i	-0.63
Cc1c(C#N)c(N=CN(C)C)c(C(=O)c2ccc(Br)cc2)n1-c1ccc(Cl)cc1	i	-0.03
CC1=CCC2C(=O)N(c3nc4ccccc4n3C)C(=O)C2C1 (configuration not stated)	i	-0.01
Cc1nn2c3ccccc3nc2c2ccccc12	i	1.14
CCc1ccccc1NC(=O)C/C(C)=N/NC(=O)COc1ccccc1C	i	-0.09

The list goes on:
SMILES	KCNQ2 block	KCNQ2 block baseline
COc1ccc(-n2ncc3c2CC(C)(C)CC3NC(=O)c2c(C)cc(=O)oc2C)cc1 (configuration not stated)	i	-1.68
CN1CCN(C(=O)c2ccc(Cn3cc(Cl)cn3)o2)CC1	i	0.11
Cc1ccc(C(c2cc(Cl)c3cccnc3c2O)N2CCN(C)CC2)cc1 (configuration not stated)	i	-3.44
COC(=O)c1ccccc1NC(=S)NC(=O)CC(C)C	i	-1.91
O=C(Cc1cccs1)NNC(=S)NC(=O)c1ccco1	i	-2.41
O=C(Cn1ncc(N2CCCC2)c(Br)c1=O)c1ccc(Cl)cc1	i	0.88
S=c1[nH]nc(-c2ccco2)n1/N=C/c1ccc(Br)s1	i	1.59
COc1cccc(C2c3c(oc4ccc(F)cc4c3=O)C(=O)N2CCCN2CCOCC2)c1 (configuration not stated)	i	-0.27
CCN(Cc1ccncc1)Cc1c(O)ccc2cc(Br)ccc12	i	1.08
Cc1ccnc(NS(=O)(=O)c2ccc(C(C)(C)C)cc2)c1	i	0.36
Cc1cc(C)nc(NC(=O)CCCC(=O)O)c1	i	1.14
O=C(NCCCn1ccnc1)c1cc(-c2cccc(O)c2)on1	i	2.44
O=C(Nc1cccc(Br)c1)/C(=C\c1cccnc1)NC(=O)c1ccco1	i	-0.14
Cc1ccccc1NC(=O)c1ocnc1C	i	-0.64
O=C(O)CCc1ccccc1OC(=O)c1ccccc1	i	-0.09
COc1ccc(NC(=O)c2cccnc2)c(OC)c1	i	0.03
Cc1cc(C)c(C)c(S(=O)(=O)NC(C)C(=O)O)c1C (configuration not stated)	i	-1.5
CCc1ccc(C(=O)C(C)OC(=O)C2COc3ccccc3O2)cc1 (configuration not stated)	i	0.35
CC(C)CCSc1nc(N2CCOCC2)c2c(c1C#N)CC(C)(C)OC2	-6.54*	-0.26*
CC(C)OCCCNC(=O)c1ccc2c(c1)NC(=O)c1ccccc1S2	i	0.06
COCCn1c(C)cc(C2=NNC(=Nc3ccccc3F)SC2)c1C	i	1.04
CCOc1ncccc1C(=O)OCC(=O)NCCc1ccccc1	i	-0.98
CCOC(=O)/C(O)=C/c1ncc(C(F)(F)F)cc1Cl	i	0.01
CCCc1cc(=O)n2nc(N3CCC(C(=O)Nc4c(F)c(F)c(F)c(F)c4F)CC3)sc2n1	i	-1.06
Cc1ccc(C(=O)CC(C(=O)O)n2cnc([N+](=O)[O-])n2)cc1 (configuration not stated)	i	0.26

Sorted by SMILES length (low to high): part of the list above
SMILES	KCNQ2 block	KCNQ2 block baseline
Cc1cc(C)nc(NC(=O)CCCC(=O)O)c1	i	1.14
CC(C)OCCCNC(=O)c1ccc2c(c1)NC(=O)c1ccccc1S2	i	0.06
Cc1cc([N+](=O)[O-])ccc1NC(=O)c1sc2ncn(CC(=O)N3CCOCC3)c(=O)c2c1C	i	0.25
C[C@@]12CC(=O)NC1N(C(=O)c1cccc(C(F)(F)F)c1)C(c1ccccc1OC(=O)c1cccc(C(F)(F)F)c1)C2 (some centres not stated)	i	-0.13

Additional structures
SMILES	KCNQ2 block	KCNQ2 block baseline
Cc1ccc(C(=O)N2CCC3(CC2)Oc2ccc(Cl)cc2C(=O)C32CC(c3ccccc3)=NO2)s1 (configuration not stated)	i	0.98
Cn1c(=NC(=O)COc2ccccc2)sc2cccc(F)c21	i	2.43
CCn1c2ccccc2c2nnc(SCC(=O)c3ccccc3)nc21	i	-0.08
Cc1ccccc1-c1noc(-c2ccccc2C(=O)N2CCCC2)n1	i	-1.08
Clc1ccc(-n2ncc3c(NCc4cccnc4)ncnc32)cc1Cl	i	-0.04
CCN(CC)C1=CC2=CC(=C(C#N)C#N)CCC2CC1 (configuration not stated)	i	14
O=C1/C(=C/C=C/c2ccco2)SC(=S)N1c1ccc(O)cc1	i	0.03
Cc1ccc(C2C(C#N)=C(N)Oc3c2sc2ccccc32)o1 (configuration not stated)	i	3.97
COc1ccccc1N(C)S(=O)(=O)c1ccc(Cl)c(C(=O)NCCCN2CCOCC2)c1	i	0.01
Cc1cccn2cc(COc3cccc([N+](=O)[O-])c3)nc12	i	-0.35
COc1cccc(N=Nc2ccc3ccccc3c2O)c1	i	0.23
CCOC(=O)c1[nH]c(CO)c(C(=O)OCC)c1C	i	-1.48
O=[N+]([O-])c1ccc(/C=C/c2ccc3cccc([N+](=O)[O-])c3n2)cc1	i	-0.38
CCN(CC)c1ccc(O)c(C=Nc2ccc(C)c(C)c2)c1	i	-0.09
Cc1ccc(C2(CCN)CCOC(C(C)C)C2)cc1 (configuration not stated)	i	-1.63
O=C(c1cc(-c2ccc(Cl)cc2)on1)N1CCc2ccccc2C1	i	-0.82
CCOC(=O)C1(CC2CC2)CCN(C(=O)c2cc(OC)nc3ccccc23)CC1	i	1.32
Cc1ccc(F)cc1NC(=O)c1cccc(N(C)C)c1	i	1.48
CC(C)C[C@H](NC(=O)N1CCn2c1nc1ccccc12)C(=O)NC1CCCCC1	i	-0.32
COc1ccc(Br)cc1[C@H]1[C@@H]2C=CCC[C@@]2(C)C(=O)N1Cc1ccccc1	i	0.32
CCN1CCN(Cc2ccc(NC(=O)c3ccc(C)c(NC(=O)c4cc(-c5ccc(Br)cc5)n[nH]4)c3)cc2C(F)(F)F)CC1	i	0.48
COc1cccc(C(=O)NCC(C)(C)SCc2ccc(F)cc2)c1	i	-1.58
CC(Sc1nnc(-c2cccnc2)n1-c1ccccc1F)C(=O)N1CCCc2ccccc21 (configuration not stated)	i	1.27
COc1ccc(C(=O)N(Cc2ccc(N(C)C)cc2)C2CCS(=O)(=O)C2)cc1 (configuration not stated)	i	1.02
Cc1nn(C)c(C)c1Sc1ccc(Br)cc1	i	0.46
CC(=O)N(Cc1ccccn1)Cc1ccco1	i	2.05
COc1ccc(Oc2c(Cl)cnn(-c3ccc(F)cc3)c2=O)cc1	i	-1.34
CCOC(=O)N1CCN(Cc2ccccn2)CC1	i	1.44
Cc1cc(NS(=O)(=O)c2ccc(NC(=O)COc3ccc(Cl)c(C)c3)cc2)no1	i	1.73
COc1cccc(-c2c(C(=O)N/N=C(\C)c3ccncc3)nnn2-c2nonc2N)c1	i	-0.03
COc1ccccc1C1c2ccc3ccccc3c2Oc2ncn(CCN(C)C)c(=N)c21 (configuration not stated)	i	-0.68
CC(=O)c1c(C)nc2ccc(Br)cc2c1-c1ccccc1	-7.79*	0.04*
O=C(c1ccc2c3c(cccc13)CC2)C1CCCN(C(=O)c2ccc[n+]([O-])c2)C1 (configuration not stated)	i	0.77
COc1ccc(/C=C/c2cc(C(F)(F)F)on2)cc1	i	-0.01
O=C(CSc1c2c(nc3cc(Cl)ccc13)CCCC2)NCCCN1CCOCC1	i	-0.52
Cc1cccc(N(CC(=O)Nc2ccccc2-c2ccccc2)S(=O)(=O)c2ccccc2)c1C	i	-0.59
CCCC(c1nnnn1Cc1ccccc1)N1CCN(c2ccccc2OC)CC1 (configuration not stated)	i	0.58
O=C(O)/C=C/C(=O)Nc1ccccc1-c1ccccc1	i	-0.71
COc1cc(C(=O)OCC(=O)N2CCCCC2C)cc(NC(=O)c2cccs2)c1OC (configuration not stated)	i	-0.01
O=C(COc1ccccc1)NCC(=O)N1CCCC1	i	0.06
Cc1nnc(SCc2nnc(-c3cccs3)o2)n1Cc1ccccc1	i	-1.08
Cc1c(NP(=O)(c2ccc(Br)cc2)c2ccc(Br)cc2)c(=O)n(-c2ccccc2)n1C	i	-3.34
CCN(CC)c1ccc(S(=O)(=O)N2CCOCC2)cc1NC(=O)CSc1n[nH]c(N)n1	i	0.29
O=C1CCCc2c1nc(-c1cccc(Cl)c1)n2O	i	1.96
CCCCNC(=O)C1CCCN(S(=O)(=O)c2c(C)noc2/C=C/c2cccs2)C1 (configuration not stated)	i	0.82
Cc1nc2sccn2c(=O)c1S(=O)(=O)NCC(C)c1ccccc1 (configuration not stated)	i	-0.86
Cc1occc1C(=O)NC1CCCc2ccccc21 (configuration not stated)	i	0.13
CCCC(=O)N(CCc1ccc(OC)cc1)Cc1nc2ccccc2c(=O)[nH]1	i	0.04
Cc1ccc(NC(=O)CSc2nc3c(c(=O)n(C)c(=O)n3C)n2C)cc1	i	1.13
CC[C@@]12C(=O)N(c3cccc(Br)c3)C(=O)N1[C@H](c1ccc(F)cc1)[C@@H]1C(=O)N(C3CCCCC3)C(=O)[C@@H]12	i	-1.18

Next part:
SMILES	KCNQ2 block	KCNQ2 block baseline
COc1ccccc1CNC(=O)c1ccc(Br)o1	i	0.53
CCOc1cc(/C=N/n2cnnc2)cc(Br)c1O	i	-2.1
Cc1oc(=O)c(NC(=O)c2ccccc2)cc1C(=O)c1ccccc1	i	-0.33
Cn1c(=O)[nH]c(=O)c2c1nc(N1CCOCC1)n2CCSc1nnnn1-c1ccccc1	i	0.55
COc1ccc(C(=O)Nc2ccnn2C2CCN(Cc3ccn[nH]3)CC2)cc1	i	-0.79
COC(=O)Cc1sc(-c2ccccn2)nc1-c1ccccc1	i	-0.47
CC1=Nc2ccccc2/C1=C/c1sc(=N)n(-c2nccs2)c1O	-9.89*	1.67*
CC(C)(C)c1ccc(-c2cc(C(=O)NNC(=O)Nc3ccccc3)c3ccccc3n2)cc1	i	0.06
Cc1cccc2nc(CSc3nc4ccccc4[nH]3)cn12	i	0.55
CC(=O)NC(Nc1c(C)n(C)n(-c2ccccc2)c1=O)C(Cl)(Cl)Cl (configuration not stated)	i	2.48
CCn1cnc2c1c(=O)n(CC(=O)NN)c(=O)n2Cc1ccccc1	i	-0.63
COc1ccc2c(CC(=O)Nc3c(C)n(C)n(-c4ccccc4)c3=O)coc2c1	i	1.04
O=C(NCc1ccccc1Cl)C1CCC(=O)N(C2CCCC2)C1 (configuration not stated)	i	0.03
CCCOc1cccc(C(=O)N(Cc2ccccc2)C2CCS(=O)(=O)C2)c1 (configuration not stated)	i	-0.77
CSc1ccc(CCNS(=O)(=O)c2ccc3c(c2)C(C)(C)C(=O)N3C)cc1	i	-0.04
CSc1nc(C)c(Cl)c(C)c1C#N	i	-3.3
O=C(O)c1cccc(NC(=S)NC(NC(=O)c2ccccc2[N+](=O)[O-])C(Cl)(Cl)Cl)c1 (configuration not stated)	i	-0.11

Not all compounds are listed; rates above refer to the full screens.
